Biofilm kill mix – mixture kills Candida albicans biofilm cells; 120,000 compounds, 0.02% hits; inhibition, % at 7.6 µM; C. albicans biofilm persisters + clotrimazole, fluorescence viability; primary screen in compound mixtures of four per well; AID 1242;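 active means inhibition above 30.3% in the primary screen of four-compound pools, then above 30% when the compound was retested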;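 further: compounds exposed to preformed 24 h biofilms for 48 h; the number belongs to the whole pool; some results filed as inactive read as strong as hits; inactives centre near 12; 0% = biofilm with clotrimazole alone and 100% = kill control; retested singly at about 60 µM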
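Assay system: C. albicans biofilms / Medium: RPMI/MOPS medium, pH 7.0 / Schedule: biofilm formation 24 h, compound exposure 48 h, 37 °C / Measured by: Alamar Blue fluorescence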
The depositor's hits bear a star. Only part of the results is shown (hit frequency here may not be typical).

SMILES	Biofilm kill mix
Cc1ccc(-n2c(O)c(/C=N/N3CCOCC3)c(=O)[nH]c2=S)cc1	14
CCc1ccccc1NC(=O)CNCc1ccccc1	21
Cn1c(O)c(C(=Nc2ccc(F)cc2)c2ccccc2)c(=O)n(C)c1=O	19
COc1cc2c(cc1C=O)OCO2	9
COc1cc(OC)c2c(c1)OCC1CON(C)C21 (stereo not given)	5
O=C(c1c[nH]c2ccc(S(=O)(=O)N3CCOCC3)cc2c1=O)N1CCC2(CC1)OCCO2	10
COc1ccc(CCn2c(O)c(/C=N/N3CCCCC3)c(=O)[nH]c2=O)cc1OC	14
O=C1NC(=O)N(CC2CCCO2)C(=O)/C1=C/c1cccs1 (stereo not given)	-2
CCN(CC(=O)Nc1ccc(C#N)c(Cl)c1)CC(=O)NC(C)(C)C	9
OC(CNCCc1c[nH]c2ccccc12)C(F)(F)F (stereo not given)	5
CSc1ncc(/C=C2/C(=O)NC(=O)N(c3ccc(Cl)cc3)C2=O)cn1	21
Cc1ccc(C(=O)NC(O)C(Cl)(Cl)Cl)cc1 (stereo not given)	12
CCOC(=O)Cc1csc(NC(=O)c2c(O)c3ccccc3n(CCC(C)C)c2=O)n1	18
O=c1[nH]c(=S)[nH]c(O)c1N=Nc1cc2c(cc1[N+](=O)[O-])OCO2	13
CC(C)CCNC(=O)c1cc(C(=O)c2cc(F)ccc2O)cn(CCC(C)C)c1=O	8
C=CCn1c(O)c(C(C)=NCCCn2ccnc2)c(=O)[nH]c1=O	13
COc1ccc(-c2cc(=Nc3cccc(C(=O)O)c3)c3cc(C)ccc3o2)cc1	8
CC(=NCc1ccc2c(c1)OCO2)c1c(O)n(-c2ccc(C)cc2)c(=O)[nH]c1=O	23
CNC(=O)N(C)c1ccc(C(O)(C(=O)OC)C(F)(F)F)cc1 (stereo not given)	23
CC(C)OP(=O)(Oc1ccc(C(O)C(Cl)(Cl)Cl)cc1)OC(C)C (stereo not given)	13
O=P(CCl)(Nc1ccccc1)C(Cl)(Cl)Cl (stereo not given)	14
CCCN1CC(C)C(OC(C)=O)(c2ccccc2)CC1C (stereo not given)	9
CCN1C(=O)/C(=C/c2ccc(N(CC)CC)cc2OC)C(=O)NC1=S	5
CC(=O)[C@H]1CC[C@H]2[C@@H]3CC[C@H]4C[C@H](O)CC[C@]4(C)[C@H]3C(=O)C[C@]12C	9
CCC(=NCCCn1ccnc1)c1c(O)n(-c2ccc(OC)cc2)c(=O)[nH]c1=O	16
CC(NCC#Cc1ccccc1)C(O)c1ccccc1 (stereo not given)	22
CCOC(=O)N(C)c1ccc(C(O)(C(=O)OC)C(F)(F)F)cc1 (stereo not given)	-7
COC(=O)[C@@]1(C#N)[C@@H]2C=CC(C(C)=O)=CN2[C@@H](C(N)=O)[C@@H]1c1ccc(F)cc1	18
O=P(Oc1ccccc1)(Oc1ccccc1)N1CCN(c2ccc(F)cc2)CC1	21
CCOC(=O)c1c(C)n(Cc2ccc(F)cc2)c2ccc(O)cc12	18
COc1ccc(CNC(C)Cc2cccs2)cc1 (stereo not given)	-10
COc1ccccc1-n1c(O)c(/C=N/NC(=S)Nc2ccccc2)c(=O)[nH]c1=S	5
COc1cc2c(cc1OC)-c1c(OC)c(OC)cc3c1[C@H](C2)N(C)CC3	19
Cc1nn(Cc2ccc(Cl)cc2Cl)c(Cl)c1C(=O)NC1CCCc2ccccc21 (stereo not given)	8
O=[N+]([O-])c1ccc(N2CCOCC2)c2ccncc12	12
CCC(C)n1c(O)c(C=NCC2CCCO2)c(=O)[nH]c1=S (stereo not given)	26
Cc1ccsc1C(=O)C1CCCN(Cc2cccc(-n3cccn3)c2)C1 (stereo not given)	11
O=C1NC(=O)N(c2ccccc2F)C(=O)/C1=C/c1ccc(Oc2ccc([N+](=O)[O-])cn2)cc1	13
O=C(COC(=O)c1ccccc1)Nc1ccc(Cl)cc1C(=O)c1ccccc1	24
CC[C@]12C=CCN3CCC4(c5cc(Br)c(OC)cc5N(C)C4[C@@](O)(C(=O)OC)[C@@H]1OC(C)=O)C32 (stereo not given in full)	7

As a working copy, two of the compounds above.
SMILES	Biofilm kill mix
O=C(COC(=O)c1ccccc1)Nc1ccc(Cl)cc1C(=O)c1ccccc1	24
CC[C@]12C=CCN3CCC4(c5cc(Br)c(OC)cc5N(C)C4[C@@](O)(C(=O)OC)[C@@H]1OC(C)=O)C32 (stereo not given in full)	7

(continued)
SMILES	Biofilm kill mix
CC(C)C/C(=N/O)c1cn(C)c2ccccc12	9
C=CCn1c(O)c(C(C)=Nc2ccc(C(=O)O)cc2)c(=O)[nH]c1=O	5
CC(Cc1ccccc1)NC(=O)/C=C/C(=O)O (stereo not given)	10
CCCC[N+]12CCC(CC1)C(C(O)(c1ccccc1)c1ccccc1)C2 (stereo not given)	23
CCC(=NCCc1c[nH]c2ccccc12)c1c(O)n(-c2ccc(C)cc2)c(=O)[nH]c1=O	14
Cc1ccc(-n2c(C)nc3ccccc3c2=O)cc1C	19
C=CCN1C(=O)NC(=O)/C(=C/C=C/c2ccccc2)C1=O	20
c1ccc2c(c1)OCC(C1=NCCN1)O2 (stereo not given)	17
O=C1NC(=O)N(Cc2ccc(F)cc2)C(=O)/C1=C\C=C\c1ccco1	-5
COP(=O)(NS(=O)(=O)c1ccccc1)OC	27
CCc1ccc(CNCCc2ccccc2F)cc1	12
Cc1oc(-c2ccccc2Cl)nc1CN1C(=O)CN=C(c2ccccc2)c2ccccc21	14
Cc1[nH]n(-c2ccccc2)c(=O)c1C(c1ccc([N+](=O)[O-])cc1)c1c(C)[nH]n(-c2ccccc2)c1=O	11
CC1CC(OC(=O)c2ccccc2)CC(C)N1C (stereo not given)	1
CN1OCC2Cn3c(nc4ccccc43)C21 (stereo not given)	3
CCc1ccccc1N1C(=O)/C(=C/c2ccc(N3CCN(C)CC3)o2)C(=O)NC1=S	8
Fc1ccc(CN2CCN(c3ccc(Cl)cc3)CC2)cc1	15
Cc1ccc(N=C(N(C)C)P(=O)(N(C)C)N(C)C)cc1	4
N=c1c[n+](C2CCCCC2)[n-]o1	17
O=C(N=Nc1c(O)[nH]c(=O)[nH]c1=O)C1COc2cc3ccccc3cc2O1 (stereo not given)	8

Gathered by group: the entries above containing a cyano group (two)
SMILES	Biofilm kill mix
CCN(CC(=O)Nc1ccc(C#N)c(Cl)c1)CC(=O)NC(C)(C)C	9
COC(=O)[C@@]1(C#N)[C@@H]2C=CC(C(C)=O)=CN2[C@@H](C(N)=O)[C@@H]1c1ccc(F)cc1	18

(next part)
SMILES	Biofilm kill mix
COc1nc2ccccc2c(=O)n1-c1ccc(Cl)cc1	8
O=c1[nH]c(=S)n(Cc2ccc(F)cc2)c(O)c1/C=N/N1CCCCC1	15
Cc1ccc(NC(=O)c2cn(CCC#N)nc2-c2ccc3c(c2)OCCO3)c([N+](=O)[O-])c1	15
CCC(=O)N1CC(=O)Nc2ccc(Br)cc2C1c1ccccc1 (stereo not given)	4
CN(C)S(=O)(=O)c1cc(NC(=O)COC(=O)Cc2ccccc2)ccc1Cl	7
CC(C)N1CCN(c2ccc(O)cc2)CC1	-12
CCCCCCCn1c(=O)c(C(=O)Nc2cnccn2)c(O)c2ccccc21	25
C=CC(C)C(C(=O)c1ccccc1)N(C)C (stereo not given)	19
CCC(CC)NCc1c[nH]c2ccccc12	21
COc1ccc(NC(=S)NC(NC(=O)CF)C(Cl)(Cl)Cl)cc1[N+](=O)[O-] (stereo not given)	11
CN1CCN(Cc2ccccc2Sc2ccccc2)CC1	6
O=C(O)CCC(=O)NCCC1=c2ccccc2=N/C1=C\c1c(O)n(Cc2ccc(F)cc2)c(=S)[nH]c1=O	12
COc1ccc(CC2(CCc3ccncc3)C(=O)NC(=O)NC2=O)c(OC)c1	28
Cc1cc(C=C2C(=O)NC(=S)NC2=O)c(C)n1C1CCCC1	10
Cc1nc2ccccc2c(=O)n1-c1ccc(Cl)cc1[N+](=O)[O-]	0
Cc1ccccc1CCNCc1ccc(Br)cc1	15
CCOc1ccc(N=Cc2c(O)n(Cc3ccccc3)c(=S)[nH]c2=O)cc1	15
C=CCn1c(O)c(/C=N/N2CCCCC2)c(=O)[nH]c1=O	2
C=CCN(CC#CCOc1ccccc1OC)CC=C	16
CCCCn1c(O)c(C(C)=NCc2ccc3c(c2)OCO3)c(=O)[nH]c1=O	-4

Part of the list above, with bars between the fields:
structure | Biofilm kill mix
COc1ccc(CNC(C)Cc2cccs2)cc1 (stereo not given) | -10
c1ccc2c(c1)OCC(C1=NCCN1)O2 (stereo not given) | 17
Cc1ccccc1CCNCc1ccc(Br)cc1 | 15
Fc1ccc(CN2CCN(c3ccc(Cl)cc3)CC2)cc1 | 15
Cc1ccc(N=C(N(C)C)P(=O)(N(C)C)N(C)C)cc1 | 4
CC(Cc1ccccc1)NC(=O)/C=C/C(=O)O (stereo not given) | 10

Other entries.
SMILES	Biofilm kill mix
CCOC(=O)c1ccc2[nH]c(-c3ccc(S(=O)(=O)F)cc3)cc(=O)c2c1	6
O=C1NC(=O)C(CCc2ccncc2)(CCc2ccncc2)C(=O)N1CCc1ccccc1	12
CCCC(CCC)C(=O)OC[N+](C)(C)CCOC(=O)C(O)(c1ccccc1)C1CCCC1 (stereo not given)	25
CCCCNc1ccncc1S(=O)(=O)NC(=O)NC(C)C	13
CC1CCN(C(=O)CCl)CC1	17
c1ccc(C2NCCc3[nH]cnc32)cc1 (stereo not given)	19
O=C(N/N=C/c1c(O)n(Cc2ccc(F)cc2)c(=S)[nH]c1=O)c1ccncc1	2
O=C(c1ccc(C(F)(F)F)cc1)C1CCCN(Cc2ccncc2)C1 (stereo not given)	28
CC(=O)OC1(c2ccccc2)CCN(C)C(C)C1C (stereo not given)	15
Fc1ccc(C2=CCN(C(c3ccc(Cl)cc3)c3nnnn3Cc3ccccc3)CC2)cc1 (stereo not given)	12
Cc1ccccc1CN1CCNCC1	27
Cc1cccc(OP(N)(=O)Oc2cccc(C)c2C)c1C	20
CCC1(CC)C(=O)N(C)C(=O)NC1=NC	21
CC/C(=N\Nc1ccccc1)c1c(O)n(C)c(=O)n(C)c1=O	14
Cc1cc(C=C2C(=O)NC(=O)NC2=O)c(C)n1-c1ccncc1	24
CCNC(=O)NNC(=O)C1CC(c2cccnc2)=NO1 (stereo not given)	14
CC(C)C(=O)Nc1nnc(CCN(CCc2nnc(NC(=O)C(C)C)s2)[N+](=O)[O-])s1	8
Cc1ccc(N2C(=O)NC(=O)C(CCc3ccncc3)(Cc3cccc(Cl)c3Cl)C2=O)cc1 (stereo not given)	2
CNC(=O)Oc1ccc(-c2cn3cc(C)ccc3n2)cc1	11
COc1ccc(NC2(C#N)CCCCC2)cc1	1
CC(C)[C@@]1(NC(=O)[C@@H]2C[C@@H]3c4cccc5[nH]cc(c45)C[C@H]3N(C)C2)O[C@@]2(O)[C@@H]3CCCN3C(=O)[C@H](Cc3ccccc3)N2C1=O	6
CCC(N)Cc1c[nH]c2ccccc12 (stereo not given)	18
Cc1ccc2c(c1Cl)NC(C(=O)O)C1CC(Sc3ccccc3[N+](=O)[O-])C(Cl)C21 (stereo not given)	15
C=C1N2CCC(CC2)C1(O)c1ccc(C)c(C)c1 (stereo not given)	16
CC(CN1CCOCC1)OC(=O)Cc1ccccc1 (stereo not given)	-2
O=C1NC(=O)N(c2ccc(F)cc2)C(=O)/C1=C/c1ccc(N2CCOCC2)cc1	16
O=P(Nc1cccc(Cl)c1)(Oc1ccccc1)Oc1ccccc1	7
NC(=O)Nc1ccc(C(=O)OCC(=O)Nc2ccc(Cl)cc2C(=O)c2ccccc2)cc1	10
Cc1nc2c(-c3ccccc3)c(C)nn2c(C)c1CCC(=O)N1CCC2(CC1)OCCO2	21
Cc1ccc(-n2c(O)c(C=NCCC3=CCCCC3)c(=O)[nH]c2=O)cc1	5
CCn1c(C)cc(/C=C2\C(=O)NC(=O)N(c3ccccc3C)C2=O)c1C	5
Cc1ccc(-c2nc3ccccc3c(=O)n2-c2ccccn2)cc1	14
Cc1c(C(=O)Nc2ccccc2)cc(-c2ccccc2)n1CCCN1CCOCC1	5
COc1cc2c(C(=O)O)c(C)n(C)c2cc1Br	19
O=C(NCCN1CCCCC1)c1ccc(Cl)nc1Cl	10
CN=C(SCC(=O)c1cccc(Cl)c1)c1c(O)n(C)c(=O)n(C)c1=O	16
Cc1ccc(C2=NN(CCC(=O)N3CCC4(CC3)OCCO4)C(=O)CC2)cc1	16
O=c1[nH]c(=O)n(Cc2ccc(F)cc2)c(O)c1/C=N/Nc1ccccc1	1
CCn1ccnc1CN1CCCC(C(=O)c2cc(Cl)ccc2OC)C1 (stereo not given)	17
O=c1[nH]c(=O)n(Cc2ccccc2)c(O)c1/C=N/NCCO	27
Cn1c(O)c(C2=NN(C(=O)CCl)C(c3ccccc3)C2)c(=O)n(C)c1=O (stereo not given)	24
CC(=O)NCC(=O)Nc1ccc(Br)cc1C(=O)c1ccccc1	35
CC(C)CN1CCN(Cc2ccccc2C(F)(F)F)CC1CCO (stereo not given)	5
CCOC(=O)C1(CCc2ccccc2)CCN(Cc2csc(C(C)=O)c2)CC1	14
CC(=NCc1cccnc1)c1c(O)n(Cc2ccccc2)c(=O)[nH]c1=O	17
CNP(=O)(Oc1ccccc1)OC12CC3CC(CC(C3)C1)C2 (stereo not given)	6
Cc1cccc(NC(=S)N2CC3CC(C2)c2cccc(=O)n2C3)c1C (stereo not given)	11
COc1cc(N2CCOCC2)ccc1/C=C1\C(=O)NC(=O)N(Cc2cccs2)C1=O	14
CCC(=NCc1ccco1)c1c(O)n(-c2ccccc2C)c(=O)[nH]c1=O	22
COc1ccc(C(=O)C2CCCN(Cc3cnc(C)s3)C2)cc1OC (stereo not given)	13
Cc1[nH]c2ccccc2c1C(=O)CN1CC=C(c2ccccc2)CC1	13
Cc1c(N=Nc2c(O)[nH]c(=S)[nH]c2=O)c(=O)n(-c2ccccc2)n1C	9
